Bioassay records (PubChem BioAssay)
NPYLR7 ag: mosquito NPYLR7 agonism | AID 1259423 | activation, % at 10 µM | actives 0.15% (n = 270,000) | HEK293T NPYLR7/Galpha15, GCaMP6s calcium fluorescence; in the data active = activation above about 40%;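 note: 0% = vehicle and 100% = reference agonist at the receptor; some compounds past the cut are filed as inactive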
NPYLR7 ag max-min: second read-out of NPYLR7 ag, no call of its own (marks repeat the call); activation, %; measured here: Max-Min RFU normalised activation; some inactives read as strong as hits;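 span of the calcium signal over five minutes; 0% = vehicle and 100% = native peptide agonist; compound fluorescence can raise it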
The depositor's hits bear a star; & = joins results of further samples. The list is partial; rates above refer to the full screens.

SMILES	NPYLR7 ag	NPYLR7 ag max-min
CC(=O)N[C@@H]1CCCCC1NC(=O)C1CCCN(C(=O)C2CCCCC2)C1 (stereo not given in full)	25.3	25.1
CCOC1CCN(C(=O)Nc2ccc(-c3nc(C)cs3)cc2)CC1	-3.5	-3.3
COC(=O)[C@H](NC(=O)[C@@H]1C[C@@H](NC(=O)Nc2cccc(F)c2)CCN1C(=O)CCC(=O)O)C(C)C	-10.2	-14.7
CCN1CCN(C(=S)N=P(c2ccccc2)(N2CCOCC2)N2CCOCC2)CC1	6.7	4.5
COCCN(CC(=O)N(Cc1ccccc1)Cc1cccn1Cc1cccc(C(F)(F)F)c1)C(=O)c1ccccc1	-3.2	-3.1
c1ccc(CCCOc2ccccc2-n2cnnc2)cc1	2.5	-0.3
Cc1c(C(=O)NCCSCc2ccco2)cnc2c(-c3cccc(Cl)c3)cnn12	19.0	29.1
COc1cccc(NC(=O)c2cccn(OCc3ccc(F)cc3)c2=O)c1	4.0	1.5
N#Cc1cccc(C(=O)N2CCN(C(=O)c3ccccc3F)CC2)c1	-1.0	-3.4
COc1cccc2c1OC1(C)CC2C(S(=O)(=O)c2ccc(Cl)cc2)C(=O)N1 (stereo not given)	4.0	4.2
O=C(CSc1nnc(-c2ccccc2)n1-c1ccccc1)N/N=C\c1ccc(F)cc1	-3.5	-12.1
Cc1cc2c(F)ccc(C)c2nc1N1CCC(O)(C(=O)O)CC1	3.5	2.7
CCC(C)Cc1c(C)sc2nc(CSCc3ccc(C#N)cc3)[nH]c(=O)c12 (stereo not given)	11.3	8.9
CN(Cc1nc(-c2cccnc2)no1)Cc1ccc(C2CCCO2)s1 (stereo not given)	4.5	-6.8
O=C(CCNc1nc(-c2cccs2)nc2cc(Cl)ccc12)NCc1cccc(C(F)(F)F)c1	2.4	15.0
O=C(Nc1ccc(SCCCC(=O)N2CCC(Cc3ccccc3)CC2)nn1)C1CC1	-0.3	-1.4
N#Cc1cccc(CSc2n[nH]c(=O)n2C2CC2)c1	13.3	17.7
OCCN1C[C@@H](O)[C@@H](O)C(O)C1CO (stereo not given in full)	-11.5	-18.5
Cc1ccc(C)c(Cn2ccnc2CN(Cc2ccco2)C(=O)NC(C)(C)C)c1	17.0	19.6
CC(C)=CC(=O)NCC1CCN(Cc2cc(C(C)(C)C)n[nH]2)CC1	1.9	2.6
CC1CCC(NC(=O)CCc2nc3ccccc3[nH]2)CC1 (stereo not given)	8.5	6.0
O=C(OC1CCOC1=O)c1cccc(NS(=O)(=O)/C=C/c2ccccc2)c1 (stereo not given)	-7.9	-9.3
CCOC(=O)CNC(=O)c1c(C(F)(F)F)nn(C2CCCN(C)C2)c1C (stereo not given)	7.3	5.3
Cc1ccc(C(=O)N2C(C(=O)NCc3cccnc3)COC23CCN(C(=O)c2ccc4c(c2)OCO4)CC3)cc1 (stereo not given)	14.6	30.5
CNC(=O)c1ccc(-c2cc(NCCN(C)C)nc3[nH]ccc23)o1	7.6	7.7
Cc1ccc(Cn2c(=O)c3c(nc4oc(C(C)(C)C)cn43)n(C)c2=O)cc1	-7.0	-10.6
Cc1cc(C)c(CN2CCN(c3cc(-c4ccccc4)nc4ncnn34)CC2)c(C)c1	14.5	1.8
CSc1ccccc1NC(=O)C1(C)CCN1C(=O)C1(c2ccccc2)CCCC1 (stereo not given)	8.5	5.5
Cc1cc([N+](=O)[O-])nn1CC(=O)Nc1cc(C(F)(F)F)ccc1Cl	-0.8	-3.5
Cc1ccccc1NC(=O)CCNC(=O)c1ccc(C2CCCO2)s1 (stereo not given)	-1.7	-4.8

(continued)
SMILES	NPYLR7 ag	NPYLR7 ag max-min
COc1ccnc(N2CCN(CC3=CSC4=NCCCN34)CC2)n1	-7.1	-8.4
CC1CCN(C(=N)N)CC1	1.5	6.5
COc1ccc(S(=O)(=O)Nc2cc3c4c(oc3c3ccccc23)CC(C)(C)CC4=O)cc1	-8.7	-12.8
O=C(NC1CCC(NC(=O)[C@H]2CCCN2C(=O)COCc2ccccc2)CC1)c1ccccc1 (stereo not given in full)	3.0	13.0
COc1ccc(-c2nnc(-c3cccc([N+](=O)[O-])c3)o2)cc1	-0.2	-5.9
COc1ccc(S(=O)(=O)N2CCN(c3ncccc3NC(=O)c3ccc4c(c3)OCO4)CC2)c(OC)c1	1.9	-3.2
O=C1NCCN2CCN(C(=O)NCCc3ccccc3)CC12 (stereo not given)	-1.5	-2.9
OCC1(CCc2ccccc2)CCN(Cc2cnc(N3CCCC3)s2)CC1	4.7	4.5
COc1ccc2[nH]c3c(c2c1)CCN(C(=O)c1ccc(OC)c(C(F)(F)F)c1)C3c1ccc(COC(C)=O)o1 (stereo not given)	5.5	-2.7
Cc1ccc(S(=O)(=O)c2cnc(SCC(=O)NCc3ccccc3)[nH]c2=O)cc1Cl	4.2	-5.8
COc1ccc(/C=C/C(=O)NC(C)C)cc1S(=O)(=O)N(C)C	9.2	2.9
O=C(CN1CN(c2ccccc2)C2(CCN(C(=O)Nc3ccc(Cl)c(Cl)c3)CC2)C1=O)NC1CC1	24.5	27.7
COc1ccc(N2CN=c3sc(=C4C(=O)Nc5ccc(OC)cc54)c(=O)n3C2)cc1	3.3	3.3
CC(=O)Nc1ccc(SCc2ccc(C(=O)N3C4CCC3CC(Oc3cccc(C#N)c3)C4)cc2)cc1 (stereo not given)	-1.4	-1.2
Cc1ccc(N2CC(C(=O)NNC(=O)C3COc4ccccc4O3)CC2=O)cc1 (stereo not given)	-0.1	16.6
CC(C)(C)C1CCC(C(=O)NNC(=O)c2cccc(Cl)c2)CC1 (stereo not given)	1.5	0.6
COc1cccc(-c2nnc(Cn3nc(C)ccc3=O)o2)c1	3.0	2.0
Nc1ccc(N)c([N+](=O)[O-])c1	-5.2	-6.2
COc1ccc(CC(=O)N2CCC(C3(C)NC(=O)N(Cc4ccsc4)C3=O)CC2)cc1OC (stereo not given)	10.1	18.0
Cn1c(=O)n(Cc2ccccc2Cl)c(=O)c2c1nc1oc(C(C)(C)C)cn12	-5.8	-5.2
O=C(N=Nc1c(O)[nH]c2ccc(Br)cc12)c1ccc(Cl)cc1Cl	-8.8	-12.4
Cc1oc(-c2ccc(C(F)(F)F)cc2)nc1CN(C)CC1COc2ccccc2O1 (stereo not given)	-8.8	-11.8
Cc1cc(Nc2ccc(F)cc2)nc2nn(CCc3ccccc3)c(=O)n12	-6.6	-9.5
CN(CC(=O)Nc1cccc(F)c1)C(=O)c1cccc(N2CCCC2=O)c1	-0.6	24.9
Cc1ccc(C)c(-n2nc(-c3ccc(C)c(C)c3)cc2C(=O)NCCC(c2ccccc2)c2ccccc2)c1	-1.3	1.9
COc1ccc(-c2cnc(-n3cnnc3)c(C)c2)cc1Cl	0.5	-3.7
CCCCCSc1nnc2nc(C)cc(C)n12	3.9	5.1
CC(Cc1ccncc1)NC(=O)c1cc(Cn2cnc3ccccc32)[nH]n1 (stereo not given)	0.6	2.7
CC1CCCN(c2cc(Nc3ccccc3O)c([N+](=O)[O-])c3nonc23)C1 (stereo not given)	-13.6	-22.6
O=C(O)c1cc(C2CC2)nc2c1cnn2Cc1ccsc1	-1.2	-5.1

The list goes on, overlapping the part above by 7 compounds.
SMILES	NPYLR7 ag	NPYLR7 ag max-min
CN(CC(=O)Nc1cccc(F)c1)C(=O)c1cccc(N2CCCC2=O)c1	-0.6	24.9
Cc1ccc(C)c(-n2nc(-c3ccc(C)c(C)c3)cc2C(=O)NCCC(c2ccccc2)c2ccccc2)c1	-1.3	1.9
COc1ccc(-c2cnc(-n3cnnc3)c(C)c2)cc1Cl	0.5	-3.7
CCCCCSc1nnc2nc(C)cc(C)n12	3.9	5.1
CC(Cc1ccncc1)NC(=O)c1cc(Cn2cnc3ccccc32)[nH]n1 (stereo not given)	0.6	2.7
CC1CCCN(c2cc(Nc3ccccc3O)c([N+](=O)[O-])c3nonc23)C1 (stereo not given)	-13.6	-22.6
O=C(O)c1cc(C2CC2)nc2c1cnn2Cc1ccsc1	-1.2	-5.1
COc1ccc2sc(C(=O)Nc3c(C)cc(C)cc3C)c(Cl)c2c1	3.2	3.2
C=CCN(C)Cc1ccc(C(=O)Nc2ccc3ncccc3c2)cc1	-1.6	-2.0
COCCn1c(=O)c2c(nc3n2CCCN3CCc2ccccc2)n(C)c1=O	16.9	7.3
O=C1NC2(CCN(C(=O)CCc3ccccc3)CC2)Nc2cccc(F)c21	0.1	1.4
Cc1ccccc1C(=O)NNC(=O)c1cc2ccccc2o1	4.9	11.5
COC(=O)c1cncc(N(C)Cc2cccc(Cl)c2)n1	21.2	23.9
Cn1c(=O)c2c(ncn2CC(O)CN2CCOCC2)n(C)c1=O (stereo not given)	-0.9	-3.5
Cc1cn(CC(=O)N2CCCC(N(C)CCc3ccccc3)C2)c(=O)[nH]c1=O (stereo not given)	-2.4	4.7
O=C(CCN1CCc2sccc2C1c1ccccc1)N1CCCN(C(=O)c2cccc(Cl)c2)CC1 (stereo not given)	4.6	-1.9
CN(C)c1nccc(NC(=O)Cc2cc(F)ccc2F)n1	8.7&3.0	6.3&2.6
CCCCCCn1c(SC(C)CC)nc2c1c(=O)[nH]c(=O)n2C (stereo not given)	5.4	1.2
CC(C)c1nccn1CCCNC(=O)c1ccc(N2CCOC(C)(C)C2)nc1	-0.9	-1.4
CN(C)CCNC(=O)c1csc2c1CCCCC2	6.8	6.3
COc1ccc(CN2CCC2(C)C(=O)NC2CC2)c2ccccc12 (stereo not given)	3.7	-1.1
CCCN(Cc1nnc(-c2ccco2)o1)C(=O)CN1C(=O)NC2(CCCCC2)C1=O	1.4	7.2
COc1cc(Cc2cnc(N)nc2N)cc(OC)c1OC	-0.9&2.5&-0.4&1.4	-8.4&-4.6&-3.2&25.9
CC1Cc2ccccc2N1C(=O)C1CCN(c2ccc(C#N)cn2)CC1 (stereo not given)	-3.2	-6.5
COC(=O)c1ccc(Cn2c(C)c(C(=O)NCc3cccc(Cl)c3)sc2=O)o1	5.5	0.8
Cc1ccc(-n2c(SCc3ccc(F)cc3)nnc2C(C)NC(=O)Nc2cccc(C(F)(F)F)c2)cc1 (stereo not given)	18.3	18.1
COC(=O)CCCCCCCCC(=O)NCCC(=O)N1CCC(C(=O)Nc2ccc(OC)cc2)CC1	-1.5	4.1
COc1ccc(C(=O)C2CCCN(C(=O)c3cc4ccccc4oc3=O)C2)cc1OC (stereo not given)	13.1	7.4
CC(C(=O)O)n1cc(-c2ccc(C(N)=O)cc2)cn1 (stereo not given)	4.1	4.1
CN(CCc1nc2ccc(Cl)cc2[nH]1)C(=O)c1ccccc1O	0.0	-2.9
COCCNc1nc(CN2CCN(C(C)=O)CC2)nc2ccc(Cl)cc12	17.3	3.8
CCSc1nnc(NC(=O)C2CSC3(C)CCC(=O)N23)s1 (stereo not given)	7.4	11.4
CC(=O)Nc1ccc(NC(=O)C(C)Sc2nc3ccccc3c(=O)n2-c2cccc(Cl)c2)cc1 (stereo not given)	1.6	-0.9
NC(=O)CCN(Cc1ccccc1)C(=O)CSc1ccc(Cl)cc1	0.7	10.3
COc1ccccc1OCc1nc(C(=O)NC(C)C)cs1	5.9	-2.4
CCCC1COCCN1Cc1cccc(C)c1O (stereo not given)	2.5	3.6
COc1cccc(-c2ccccc2NC(=O)C2CCN(Cc3ccc4nonc4c3)CC2)c1	-2.8	-7.4

Going on with the list.
SMILES	NPYLR7 ag	NPYLR7 ag max-min
CC(C)N1C(=O)C2(SCCN2C(=O)Nc2cccc(Cl)c2)c2ccccc21 (stereo not given)	0.6	6.9
O=S(=O)(NCc1cn2ccccc2n1)c1ccc(Cl)cc1	2.8	0.2
Cc1ccc(C)c2[nH]c(=O)c(CCNC(=O)Cc3cccc4ccccc34)cc12	-0.6	9.5
Cc1ccccc1C1c2ccsc2CCN1C(=O)CN(Cc1ccco1)C(=O)CCC1CCCC1 (stereo not given)	21.2	23.5
O=C(Nc1ccc(O)c(-c2nc3ccccc3o2)c1)c1cc([N+](=O)[O-])ccc1Cl	-2.1	-10.5
COc1ccc(Nc2nccnc2C#N)cc1Br	1.3	0.6
COC(=O)C1CN(Cc2ccccc2)C(=O)CN1S(C)(=O)=O (stereo not given)	12.8	8.7
CC(c1ccccc1)n1c(SCC(=O)O)nnc1-c1cccnc1 (stereo not given)	12.4	9.4
CC1=Nc2ccc3ccccc3c2C1(C)C	-12.4	-19.2
COc1cccc(-n2c(=O)c3ccccc3n(CC(=O)N3CCCC3)c2=O)c1	-4.0	-0.9
COc1ccc(CNC(=O)c2sc(=O)n(Cc3ccc(S(C)(=O)=O)cc3)c2C)cc1	6.8	2.4
CC(=O)Nc1ccc(-n2ccc3nc4ccn(CCCN(C)C)c(=O)c4cc3c2=O)cc1	3.5	8.7
Cc1c(C(=O)N2CCN(C(=O)C(Cl)Cl)CC2)cc(-c2ccc(F)cc2)n1-c1ccccc1	8.5	4.1
